Source: PubChem
KCNQ2 pot: potentiators of rat KCNQ2 potassium channel; Potassium voltage-gated channel subfamily KQT member 2 (Rattus norvegicus), O88943; CHO-K1 KCNQ2, FluxOR thallium flux fluorescence; stronger effect = higher value; B-score at 10 µM; hit rate 0.54% among 310,000;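 active means fluorescence ratio B-score at least 3 SD of library B-scores, with initial fluorescence B-score within 3 SD, cut at about 5.3 in these data; same plate scores as AID 2156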;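 further: B-score of peak minus minimum over baseline fluorescence ratio after K+ and Tl+ stimulus; positive B-score means potentiation of KCNQ2 with more thallium influx and brighter signal; only the inactives scoring about 0 or higher are listed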
Target sequence (O88943 whole entry, looked up): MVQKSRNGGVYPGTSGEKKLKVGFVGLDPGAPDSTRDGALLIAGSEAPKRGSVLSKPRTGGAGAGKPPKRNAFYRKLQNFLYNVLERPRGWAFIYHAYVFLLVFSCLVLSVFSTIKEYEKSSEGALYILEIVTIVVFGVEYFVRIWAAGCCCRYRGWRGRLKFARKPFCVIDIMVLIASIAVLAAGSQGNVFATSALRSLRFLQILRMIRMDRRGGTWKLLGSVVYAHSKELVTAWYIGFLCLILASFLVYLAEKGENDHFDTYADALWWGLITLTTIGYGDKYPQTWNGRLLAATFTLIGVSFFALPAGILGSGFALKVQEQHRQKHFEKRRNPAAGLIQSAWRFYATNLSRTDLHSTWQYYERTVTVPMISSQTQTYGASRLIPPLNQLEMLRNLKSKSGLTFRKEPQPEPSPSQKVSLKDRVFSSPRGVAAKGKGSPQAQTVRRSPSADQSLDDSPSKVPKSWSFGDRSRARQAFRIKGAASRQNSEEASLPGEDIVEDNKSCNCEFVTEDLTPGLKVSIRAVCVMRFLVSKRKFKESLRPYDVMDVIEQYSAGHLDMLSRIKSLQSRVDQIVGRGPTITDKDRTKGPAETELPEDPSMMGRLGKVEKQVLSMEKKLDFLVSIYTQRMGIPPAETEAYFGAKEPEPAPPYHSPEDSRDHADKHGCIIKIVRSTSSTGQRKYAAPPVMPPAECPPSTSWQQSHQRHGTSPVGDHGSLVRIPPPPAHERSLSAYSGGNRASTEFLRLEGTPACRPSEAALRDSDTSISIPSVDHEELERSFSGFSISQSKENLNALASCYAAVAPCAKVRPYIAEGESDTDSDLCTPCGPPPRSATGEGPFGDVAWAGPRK
KCNQ2 pot baseline: recorded beside KCNQ2 pot, whose call it bears; B-score; compound at 10 µM; measured here: initial fluorescence intensity artifact check;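 brightness before thallium and not channel activity; 0 = typical well and far values either way flag optical interference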
The depositor's hits bear a star. The list is partial; the hit share may differ from the screen's.

structure | KCNQ2 pot | KCNQ2 pot baseline
Cc1ccc(S(=O)(=O)CC(CN2CCCCC2)N2CCCCC2)cc1 (centres undefined) | 0.36 | -1.22
COC(=O)Nc1ccc(S(=O)(=O)N2CCCC(C(=O)Nc3cccc4c3OCCO4)C2)cc1 (centres undefined) | 0.54 | 1.44
O=C(NCC(=O)N1CCCC1)c1ccc(Br)o1 | 0.22 | -0.68
Cc1ccc(C)c(Cn2nnc(C(=O)Nc3ccc4c(c3)OCCO4)c2N)c1 | 0.16 | 0.7
O=C(Nc1ccc(N2CCN(C(=O)c3ccco3)CC2)cc1)c1ccccc1F | 1.44 | 0.5
CCOC(=O)C1CCN(C(=O)CCn2c(=O)c3cccn3c3cccnc32)CC1 | 2.14 | 0.43
CCc1[nH]c(=S)c(C#N)c2c1CCCC2 | 0.04 | 0.08
Cc1nc(-c2cccc(S(=O)(=O)N3CC(C)OC(C)C3)c2)cs1 (centres undefined) | 0.54 | 0.16
COCCNC(=O)c1cc2cc(Br)cc(OC)c2oc1=O | 2.1 | 0.04
O=C(NCCS(=O)(=O)N1CCCCC1)c1ccccc1 | 0.1 | -0.4
COc1ccc(NC2CCCN(C(=O)c3ccccc3N3CCOCC3)C2)cc1OC (centres undefined) | 1.28 | -0.96
CC(Oc1ccc(Cl)cc1Cl)C(=O)Nc1cccc(O)c1 (centres undefined) | 0.71 | -0.3
O=S(=O)(c1ccccc1)N1CCN(c2ncccn2)CC1 | 0.46 | -0.59
CCN(CC)CCN1C(=O)C(=O)/C(=C(/O)c2ccc(OC)c(OC)c2)C1c1ccccn1 (centres undefined) | 0.01 | 1.74
O=C1[C@H]2[C@@H](c3ccc(F)cc3)N3C(=O)N(c4cccc(Br)c4)C(=O)[C@@]3(Cc3ccc(Cl)cc3)[C@H]2C(=O)N1C1CCCCC1 | 0.62 | 0.03
COC(=O)COc1ccc(NC(=O)C2CCCO2)cc1 (centres undefined) | 1.34 | 0.14
COCc1cc(CN2CCCC(C(=O)c3cccc(C(F)(F)F)c3)C2)ccc1OC (centres undefined) | 0.01 | 0.21
COC(=O)c1ccccc1NC(=O)NCc1ccc2c(c1)OCO2 | 0.5 | -0.02
Cc1nn(Cc2ccc(Cl)cc2)c(C)c1NC(=O)CCCn1nc([N+](=O)[O-])c(Cl)c1C | 2.62 | -1.07
CCOC(=O)N1CCN(C(=O)c2cc3cc(F)ccc3[nH]2)CC1 | 0.38 | -0.59
CC(C)CN1CCN(Cc2cnc(-c3ccc(Cl)cc3)nc2)CC1CCO (centres undefined) | 1.91 | 0.46
CC(NC(=O)c1cc2cc([N+](=O)[O-])ccc2oc1=O)C1CCCO1 (centres undefined) | 0.22 | -1.49
Cc1c(NC(=S)NC(C)(C)C)c(=O)n(-c2ccccc2)n1C | 2.49 | -0.79
C/C(=N\NC(=O)c1cccc(N/N=C(\C)c2ccncc2)c1)c1ccncc1 | 0.92 | -0.99
Cc1ccnc(NC(=O)c2cccc(NC(=O)Cc3ccccc3)c2)c1 | 0.52 | 0.61
Cc1ccc2[nH]c(C(=O)O)c(-c3ccccc3)c2c1 | 1.72 | 0.71
Cc1cc(NC(=O)CCC(=O)N(CC(=O)NC2CCCC2)c2ccc(C(C)C)cc2)no1 | 0.58 | -2.03
CCN1C(=O)c2cccc3c(S(=O)(=O)Nc4nc(C)cs4)ccc1c23 | 0.75 | -0.95
COc1cccc(CNC(=O)CCS(=O)(=O)c2ccc3c(c2)NC(=O)CO3)c1 | 0.14 | -0.85
CCC1Sc2ccc(S(=O)(=O)CCC(=O)NCc3cccs3)cc2NC1=O (centres undefined) | 0.08 | -0.64
CN(C)S(=O)(=O)c1cccc(NC(=O)c2c[nH]c3ccccc23)c1 | 2.64 | -0.13
COc1ccc(-c2nc(N=Nc3ccc(O)cc3)n[nH]2)cc1 | 2.34 | -1.11
O=C(Nc1cccnc1)c1cc(-c2ccc3c(c2)OCO3)on1 | 0.25 | 0.27
O=C(O)C1C2CCC(C2)C1C(=O)NCCCn1ccnc1 (centres undefined) | 0.38 | -0.2
Cn1c(=O)n(C)c2cc([N+](=O)[O-])c(N3CCN(C(=O)c4ccccc4Br)CC3)cc21 | 1.73 | -0.35
CCc1cccc(NC(=O)CS(=O)Cc2nc(-c3ccc(C)cc3)oc2C)c1 (centres undefined) | 0.81 | -1.03
COC(C(=O)Nc1ccc(S(=O)(=O)N2CCCCC2)cc1)c1ccccc1 (centres undefined) | 0.16 | 0.71
CC1(C)C(C(=O)OCC(Cl)(Cl)Cl)N2C(=O)C(NC(=O)Cc3ccccc3)C2S1=O (centres undefined) | 0.57 | 0.94
O=C(CSc1nnc(-c2ccccn2)n1Cc1ccccc1)N1CCCC1 | 1.73 | -0.88
CC1=C(C(=O)Nc2ccccn2)C(c2ccc(F)cc2)n2ncnc2N1 (centres undefined) | 0.96 | -0.56

Part of the list above in another layout.
Structure: COC(=O)Nc1ccc(S(=O)(=O)N2CCCC(C(=O)Nc3cccc4c3OCCO4)C2)cc1 (centres undefined)
  KCNQ2 pot = 0.54; KCNQ2 pot baseline = 1.44

Structure: O=C(NCC(=O)N1CCCC1)c1ccc(Br)o1
  KCNQ2 pot = 0.22; KCNQ2 pot baseline = -0.68

Structure: Cc1ccc(C)c(Cn2nnc(C(=O)Nc3ccc4c(c3)OCCO4)c2N)c1
  KCNQ2 pot = 0.16; KCNQ2 pot baseline = 0.7

Structure: O=C(Nc1ccc(N2CCN(C(=O)c3ccco3)CC2)cc1)c1ccccc1F
  KCNQ2 pot = 1.44; KCNQ2 pot baseline = 0.5

(listing goes on)
structure | KCNQ2 pot | KCNQ2 pot baseline
CCOc1ccc2nc(SCc3ccc(CC(=O)O)cc3)c(C#N)cc2c1 | 1.38 | -1.45
CCCCCOC(=O)CSc1nc2c(c(=O)[nH]c(=O)n2C)n1CCc1ccccc1 | 0.07 | -1.75
CCC1CN(C(=O)N2CCC(C(=O)NCc3ccccc3OC)CC2)c2ccccc2O1 (centres undefined) | 1.29 | -0.11
Fc1ccc(-c2csc3nnc(SCc4cccnc4)n23)cc1 | 1.63 | -1.34
CCOc1ccc(S(=O)(=O)n2cnc3ccccc32)cc1 | 0.84 | 0.04
CC#CCN1c2ccccc2[C@]23C[C@@H](C(=O)OC)N=C2NC(C(=O)OC)=C(C(=O)OC)[C@H]13 | 0.69 | 1.13
Cc1nc2ccc(-c3nc4ccccc4[nH]3)cc2[nH]1 | 1.89 | -0.04
CCN(CC)c1ccc(/C=N/NC(=O)CNC(=O)c2ccccn2)cc1 | 1.37 | -0.38
COC(=O)CNC(=O)CN1C(=O)N(c2cccc(Cl)c2)C(N(O)C(=O)Nc2cccc(Cl)c2)C1(C)C (centres undefined) | 1.38 | 0.78
COc1cc(Br)cc(C=Nc2cccc(C(F)(F)F)c2)c1O | 2.84 | 1.54
COc1ccc(CN2C3CCCC2CC(NC(=O)Nc2ccccc2C)C3)cc1 (centres undefined) | 1.59 | 1.93
Cc1ccc(C(=O)OCC(=O)NCc2cccs2)cc1 | 0.43 | -0.02
Cc1ccc(SCCSc2nc(N)cc(=O)[nH]2)cc1 | 0.75 | 0.21
O=C(c1cc([N+](=O)[O-])ccc1N1CCOCC1)N1CCCC1 | 1.67 | -0.15
CCn1nc(CC(=O)Nc2ccc(-n3cnnn3)c(OC)c2)c2ccccc2c1=O | 0.01 | -0.45
COc1ccc(NS(=O)(=O)c2ccc(C)c(C(=O)NCc3cccnc3)c2)cc1 | 0.05 | 1.99

Continuation:
| compound | KCNQ2 pot | KCNQ2 pot baseline |
| --- | --- | --- |
| Cc1ccccc1N1CCN(S(=O)(=O)c2ccccc2)CC1 | 1.27 | -0.14 |
| Cc1ccc(NC(=O)Cn2c(=O)c3cccn3c3ccccc32)c(C)c1 | 0.2 | -0.77 |
| Cc1cccc(OCCCC(=O)Nc2ccc(N(C)C)cc2)c1 | 0.12 | 1.02 |
| COc1ccccc1OCCNC(=O)c1ccco1 | 0.54 | 0.95 |
| CCOC(=O)C1=NN(C(=O)c2ccccc2)C(O)(c2ccc(C)cc2)C1 (centres undefined) | 3.77 | 3.12 |
| CCN(CC)CCOC(=O)c1ccccc1Br | 0.76 | -1.28 |
| Cc1ccc(C)c(NS(=O)(=O)c2cc(C(=O)NCc3ccccn3)ccc2C)c1 | 0.64 | -0.86 |
| Cc1cc(=O)oc2cc(OCC(=O)NC3CCCC3)ccc12 | 2.06 | -0.68 |
| O=C(CCCn1c(=O)[nH]c2cc(Cl)ccc2c1=O)NCCC1=CCCCC1 | 0.09 | 0.53 |
| CCOc1ccc(C(=O)SC2=NCCS2)cc1 | 0.29 | -0.6 |
| O=c1c2[nH]c3cccc(Cl)c3c2ncn1CCN1CCCCC1 | 0.15 | 0.02 |
| CS(=O)(=O)N1CCc2cc(C(=O)N3CCN(c4ccccc4F)CC3)ccc21 | 0.52 | -2.16 |
| CN1CCN(NC(=O)Nc2cc(Cl)cc(Cl)c2)CC1 | 0.34 | -2.2 |
| O=C(CN1CCOCC1)Nc1cccc(Br)c1 | 0.19 | 0.99 |
| CN(C)CC(=O)c1c(N)n(Cc2ccccc2)c(=O)n(C)c1=O | 2.2 | -0.44 |
| COc1cccc(-n2nnc3c(=O)n(Cc4cccc(F)c4)cnc32)c1 | 0.24 | -0.27 |
| COc1nc(OC)nc(N2CCC(NC(=O)C(Cc3cccc(OC)c3OC)NC(C)=O)CC2)n1 (centres undefined) | 0.52 | -1.76 |
| CCOc1ccc(NC(=O)Cc2ccc(NC3=NC4CS(=O)(=O)CC4S3)cc2)cc1 (centres undefined) | 17.3* | -4.22* |
| COC(=O)c1[nH]c2ccc(C)cc2c1NC(=O)CN1CCN(C(=O)c2ccccc2)CC1 | 0.01 | -1.12 |
| CC(C)Nc1nc(Cl)nc(NC2CCCCC2)n1 | 0.13 | 1.83 |
| Nn1c(Cc2cccc3ccccc23)nnc1SC1CCOC1=O (centres undefined) | 2.27 | -0.34 |
| CCN(CC(=O)Nc1ccc(NC(C)=O)cc1)C(=O)/C=C/c1ccco1 | 1.03 | -0.26 |
| O=[n+]1c2c(n([O-])c3c1CCCC3)CCCCC2 | 0.38 | -1.63 |
| O=C(NCc1nc2ccccc2[nH]1)c1ccco1 | 0.08 | -0.91 |
| COc1ccc(Cl)cc1NC(=O)NCc1cccnc1 | 1.09 | 0 |
| CCCC(=O)NC(NC(=S)Nc1c(C)n(C)n(-c2ccccc2)c1=O)C(Cl)(Cl)Cl (centres undefined) | 0.7 | -1.25 |
| CC1CCCCN1C(=O)Cn1c(=O)n(-c2ccc(F)cc2)c(=O)c2sccc21 (centres undefined) | 0.27 | -1.34 |
| CCOC(=O)c1ccc(NCc2nc3ccccc3n2C)cc1 | 1.28 | -1.29 |
| O=C(Cc1cccs1)Nc1nncs1 | 0.38 | 0.32 |
| O=C(CSc1ccccc1)Nc1ccc(N2CCOCC2)c(F)c1 | 0.3 | 2.15 |
| CCCn1c(SCC(=O)NCCc2ccc(OC)c(OC)c2)nc2c1c(=O)n(C)c(=O)n2C | 0.12 | -0.88 |
| Cc1ccc(CNC(=O)c2ccc3c(c2)S(=O)(=O)c2ccccc2C3=O)cc1 | 0.78 | 0.27 |
| CN1C(=O)/C(=C2/C=Cc3ccccc3N2CCCS(=O)(=O)O)SC1=S | 0.07 | 0.11 |
| Cn1nnc2cc(C(=O)NC3CC3)ccc21 | 1.36 | 0.44 |
| CC(=O)N1CCOc2ccc(S(=O)(=O)N3CCC(C(=O)Nc4ccc(C)cc4)CC3)cc21 | 0.1 | -0.51 |
| COc1ccc(S(=O)(=O)N2CCOCC2)cc1NC(=O)CCc1nc2ccccc2c(=O)[nH]1 | 3.03 | -0.66 |
| CCOC(=O)C(C(=O)OCC)C1OC(=O)c2cc3c(cc21)C(=O)OC3C(C(=O)OCC)C(=O)OCC (centres undefined) | 1.95 | 1.92 |
| Cc1cccc(CCNS(=O)(=O)c2ccc3c(c2)oc(=O)n3C)c1 | 0.34 | 0.22 |
| COc1cccc2cc(C(=O)Nc3ccccc3C(=O)N3CCOCC3)oc12 | 0.97 | -1.23 |
| COc1ccc(NC(=O)NCc2ccncc2)c(OC)c1 | 0.26 | -1 |
| O=C(CN1C(=O)c2ccc([N+](=O)[O-])cc2C1=O)Nc1ccccc1N1CCCC1 | 0.44 | 0.53 |
| Nc1cc(N)nc(CS)n1 | 0.08 | -1.45 |
| O=C(Cc1n[nH]c(=O)c2ccccc12)Nc1cc(Cl)ccc1-n1cncn1 | 1.64 | 0.63 |
| COc1ccc(C(=O)NCC(=O)N2CCN(C(=O)c3ccco3)CC2)cc1 | 1.86 | -0.21 |
| COCCNC(=O)Cn1c(=O)n(C)c2ccccc21 | 0.62 | -0.78 |
| CC(C)(C)OC(=O)NNC1CC(=O)N(c2ccccc2F)C1=O (centres undefined) | 0.49 | -1.39 |
| O=C(Cn1c(=O)oc2cc(S(=O)(=O)N3CCCC3)ccc21)N1CCCC1 | 1.69 | 1.37 |
| CCN(CC)S(=O)(=O)c1ccc(C(=O)NCCc2ccccn2)cc1 | 0.64 | 0.19 |
| CCOC(=O)c1ccc(-c2ccc(/C=N/NC(=O)CN(c3cccc(C)c3)S(C)(=O)=O)o2)cc1 | 0.13 | -2.44 |
| Nc1ccc(S(N)(=O)=O)cc1 | 0.15 | 0.75 |
| Cn1c(=O)n(C)c2cc(NC(=O)CCl)ccc21 | 0.44 | -1.91 |
| Cc1cc(C(=O)Nc2ccc(F)cc2)c2ccccc2n1 | 0.15 | 0.68 |
| COC(=O)C/C=C/[C@@H](C)[C@@H](/C=N/O[C@H](C)c1cn([C@@H]2COC[C@H]2O)nn1)NS(=O)(=O)c1ccc(C)cc1 | 0.38 | 0.25 |
| COc1cccc(N2CC(C(=O)Nc3nnc(SCCN4CCOCC4)s3)CC2=O)c1 (centres undefined) | 0.27 | -1.28 |
| CCC(=O)OC1(C)C(=O)C=C2C=C(c3ccsc3)OC=C2C1=O (centres undefined) | 0.26 | -0.07 |
| CCCCNC(=O)[C@H]1C[C@H]1[C@@H](O)[C@H](CO)NC(=O)[C@H](COCc1ccccc1)NC(=O)OC(C)(C)C | 0.83 | -0.21 |
